Rango-impB inh = qHTS Assay for Inhibitors of Rango (Ran-regulated importin-beta cargo) - Importin beta complex formation | Rango CFP/YFP FRET sensor + importin beta, 45 min | Potency, µM (titrated, usually from 92.2 µM), for the others: at the highest dose inhibition of complex formation | 0.031% of 340,000 active | AID 540263, 2011; active = rising FRET ratio curve, often small or poorly fitted; inconclusive = mostly compound fluorescence or quenching in the first reads; inactive = flat curves in all reads;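 note: potency is the fitted concentration of half-maximal effect; 0% = DMSO wells and 100% = buffer wells lacking importin beta; nearly all actives have a fitted effect of over 15% in size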
Target sequence (Q14974 whole entry, looked up): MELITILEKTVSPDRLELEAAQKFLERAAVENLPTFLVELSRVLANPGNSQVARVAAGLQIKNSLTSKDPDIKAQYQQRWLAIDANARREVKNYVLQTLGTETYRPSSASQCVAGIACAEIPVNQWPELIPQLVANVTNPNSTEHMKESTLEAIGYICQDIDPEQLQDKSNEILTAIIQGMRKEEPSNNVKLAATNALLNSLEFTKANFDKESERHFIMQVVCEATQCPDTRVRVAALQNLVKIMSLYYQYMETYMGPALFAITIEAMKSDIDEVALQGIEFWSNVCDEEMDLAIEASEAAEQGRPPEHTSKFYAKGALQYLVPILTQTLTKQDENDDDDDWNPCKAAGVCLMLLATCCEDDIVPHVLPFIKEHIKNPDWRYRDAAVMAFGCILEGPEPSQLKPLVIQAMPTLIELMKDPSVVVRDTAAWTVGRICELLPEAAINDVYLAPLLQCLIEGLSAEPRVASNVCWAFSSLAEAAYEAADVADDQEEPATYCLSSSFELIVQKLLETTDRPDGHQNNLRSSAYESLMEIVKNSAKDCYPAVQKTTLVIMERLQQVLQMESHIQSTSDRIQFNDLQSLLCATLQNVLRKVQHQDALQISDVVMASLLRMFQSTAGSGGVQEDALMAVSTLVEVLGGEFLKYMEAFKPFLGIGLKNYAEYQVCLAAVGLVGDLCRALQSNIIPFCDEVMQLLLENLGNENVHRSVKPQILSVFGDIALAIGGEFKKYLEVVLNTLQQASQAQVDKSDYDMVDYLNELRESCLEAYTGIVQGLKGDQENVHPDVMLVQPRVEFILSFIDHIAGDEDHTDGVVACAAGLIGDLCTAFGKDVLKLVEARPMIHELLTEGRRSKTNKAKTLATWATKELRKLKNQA
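Inhibition scored from the CFP 486 nm/YFP 530 nm FRET ratio 45 min after adding 0.125 microM importin beta to 50 nM Rango biosensor preincubated 5 min with compound (room temperature, PBS with DTT, Tween-20, BSA). No-importin wells as positive control.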
GLA inh pH 4.5 = qHTS Assay for Inhibitors of Human alpha-Galactosidase at pH 4.5. AID 1467, 2008. purified enzyme, 4-MU-alpha-Gal fluorescence, pH 4.5. activity change, negative = inhibition, % at 105 µM. 230,000 tested, under 10 active; inconclusive = small, poorly fitted or top-dose-only inhibition, or a rising curve; inactive = flat fitted curve, though single readings scatter; no compound was filed as active;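 note: 0% = full activity with enzyme and -100% = basal without enzyme; dose as in the result columns while the protocol names 77 µM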
miR-21 reporter = qHTS Assay for Modulators of miRNAs and/orActivators of miR-21 | HeLa miR-21 FLuc reporter, luciferase, 48 h | Potency, µM (doses to about 38.3 µM), for the others: at the highest dose reporter change, positive = more light | 340,000 tested, under 10 active; active = well fitted rising curve with a large enough effect; inconclusive = small, poorly fitted or top-dose-only effect; inactive = no such curve, though single readings can be large or run the other way;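 note: % of control where 0% means no effect; miR-21 action dims this reporter so a rising signal means less miR-21 action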
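HeLa cells stably expressing CMV-driven firefly luciferase with a downstream miR-21 binding sequence, endogenously expressing miR-21, were treated with titrations (up to about 40uM final) for 48 hours at 37 degree Celsius. Luciferase luminescence was read after lysis.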
Rango dissoc inh = qHTS Assay for Inhibitors of RanGTP induced Rango (Ran-regulated importin-beta cargo) - Importin beta complex dissociation | Potency, µM (series often up to 46.1 µM), without a hit: at the top dose activity change, negative = inhibition | Biochemical FRET Rango-importin beta, RanGTP-induced dissociation | AID 540253, 2011 | 0.071% of 340,000 active; active means falling FRET ratio curve, often poorly fitted, with flat reads before Ran was added; inconclusive means other falling curves, or compound fluorescence or quenching; inactive means flat or rising ratio curve;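 note: potency is the fitted concentration of half-maximal effect; % of control where 0% means no effect; nearly all actives have a fitted effect of over 45% in size; -100% = wells without RanGTP and RCC1; the record marks most hits as doubtful in a second field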
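Recombinant Rango FRET biosensor (EYFP–snurportin 1 IBB–cerulean CFP10) at 0.1 uM premixed with 0.25 uM importin beta in PBS, 1 mM DTT, 0.02% Tween-20, 0.1% BSA. Compound added 5 min; RanGTP-RCC1 (0.6 uM Ran, 2 mM GTP, 0.2 uM RCC1) then triggers release, read at 45 min.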
Numbers without * were called inactive; ? = inconclusive; . = not tested or not shown; & = joins results of further samples; [ ] = dose if it differs, or a comment. This is a subset, so the mix of outcomes need not match the whole.

Rango dissoc inh,GLA inh pH 4.5,Structure,miR-21 reporter,Rango-impB inh
-12%,2,CCN1C(=O)/C(=C\c2ccco2)C(C(=O)OC)=C1C,1%,1.7%
-12%,9,CC(=O)Nc1ccc(Nc2nc3c(S(=O)(=O)c4ccc(C)c(C)c4)nnn3c3ccccc23)cc1,-1%,-2.7%
-9%,7,Cc1c(C(=O)O)cccc1N1C(=O)Nc2ccccc2N1O,-7%,-4.1%
-8%,-2,COc1cc(OC)cc(C(=O)N2CCN(Cc3cccc(F)c3)CC2)c1,-10%,0.4%
?,.,CN(C)S(=O)(=O)c1ccc(/C(O)=C2/C(=O)C(=O)N(CCN3CCCCC3)C2c2cccnc2)cc1 (configuration not stated),.,2.6%
1%,0,O=C(Nc1ccc2cn[nH]c2c1)c1c(Cl)cccc1Cl,-1%,0.1%
0%,.,COc1cccc(NC(=O)CN(C)C(=O)c2sc3cc(Cl)ccc3c2Cl)c1,.,3.4%
1%,.,CC(CCc1ccccn1)(CCc1ccccn1)C(=O)c1ccccc1,.,0.4%
-24%,-20,Cc1nc(NC(=O)c2cccc(Cl)c2)sc1C(=O)N1CCCCC1,8%,1.1%
-15%,0,CC(=O)Nc1cccc(NC(=O)C2CC(=O)N(c3ccc(C)cc3)C2)c1 (configuration not stated),-16%,1.3%
-14%,.,O=C(CCCSc1ccc(Cl)cc1)Nc1cc(S(=O)(=O)N2CCOCC2)ccc1O,.,?
-9%,2,CC(=O)/C(=N/Nc1cccc(C)c1)N1CCOCC1,-1%,-5.4%
-9%,.,Cc1nn(CCOc2cccc(Cl)c2)c(C)c1[N+](=O)[O-],-7%,-5.8%
-6%,2,O=C(NCc1ccco1)c1ccc(S(=O)(=O)N2CCOCC2)cc1,-2%,-3.1%
2%,.,CC(=NNC(=O)c1cc(C)oc1C)c1ccc(Br)s1,.,2.0%
24%,-7,COc1ccc(NC(=O)C2CCCN(C(=O)NC3CCCCC3)C2)cc1OC (configuration not stated),-1%,-3.6%
33%,.,CCN1C(=O)[C@H]2[C@H]3CN=C(SCc4ccc(C)cc4)N3[C@@](CC)(C(=O)OC)[C@H]2C1=O,.,-0.1%
13%,1,C#CCOc1ccc(/C=N/O)cc1Cl,-39%,1.4%
1%,10,CN1CCCC(OC(=O)c2cc(Cl)ccc2Cl)C1 (configuration not stated),-3%,-1.7%
-9%,-8,COc1ccc(C(=O)NCC(=O)N/N=C/c2ccc([N+](=O)[O-])s2)cc1OC,?,-1.9%
?,.,COCCOc1cc(NCc2ccccc2)c2ncn(C(C)C)c2c1,.,?
-10%,-2,CCCCn1nnnc1SCC(=O)NNC(=O)C1CCCCC1,3%,-4.1%
1%,-1,O=C1COc2ccc(C(=O)NC3CC3)cc2N1,1%,-0.7%
-3%,-6,CCN(CC)S(=O)(=O)c1cccc(C(=O)N2CC(O)CC2C(=O)O)c1 (configuration not stated),-3%,-0.7%
-12%,-2,COc1ccc(C(=O)/C=C(\C)Nc2ccc3c(c2)OCO3)cc1,-49%,-5.5%
1%,0,COC(=O)c1ccc(NC(=O)Cn2cnc3c(nnn3-c3cccc(OC)c3)c2=O)cc1,-1%,-1.2%
1%,.,COc1ccc(NS(=O)(=O)c2cc(C(=O)N3CCCCCC3)ccc2C)cc1,.,-0.2%
1%,.,COc1ccccc1-n1cc(-c2ccc(C)cc2)[nH]c1=S,22%,-1.4%
15%,.,Cc1cc(Nc2ccc(C(=O)O)cc2)nc(N)n1,2%,-1.3%
3%,12,COc1cccc2cc(C(=O)NCc3ccco3)c(=O)oc12,-5%,2.3%
0%,3,N#CCOC(=O)C1CSC2(c3ccc(Br)cc3)CCC(=O)N12 (configuration not stated),4%,1.2%
-6%,7,COc1ccc(CC(=O)O/N=C(\N)Cc2ccc(OC)cc2)cc1,-5%,-4.0%
-4%,.,O=C(c1ccc(Cl)cc1)N1CCC(C(=O)N2CCCc3ccccc32)CC1,0%,-0.6%
33%,.,C=C(NC(C)=O)c1c(F)cccc1F,.,-0.5%
10%,3,COc1ccc(C(=S)N2CCCC2)cc1C,-18%,0.5%
0%,.,CCC(=O)Nc1ccc(C(=O)CN2C(=O)NC3(CCOc4ccccc43)C2=O)cc1 (configuration not stated),.,-4.9%
-16%,-10,Cc1ccc2cccc(S(=O)(=O)NC3CCS(=O)(=O)C3)c2n1 (configuration not stated),-1%,-2.0%
-3%,.,Cc1ccc2cc(CCNS(=O)(=O)c3ccc(Br)cc3)c(=O)[nH]c2c1C,10%,?
?,.,CN(C(=O)CN1C(=O)c2cccc(N)c2C1=O)C1CCCCC1,.,?
-3%,.,COc1ccccc1NC(=O)C(C)OC(=O)CCCOc1ccccc1 (configuration not stated),.,0.6%
16%,4,CN(CC(=O)Nc1cccc(F)c1)CC(=O)Nc1ccccc1[N+](=O)[O-],20%,-0.8%
-9%,.,COc1ccc(/C=N/NC(=O)C(=O)N2CCCCCC2)cc1[N+](=O)[O-],-14%,-3.2%
0%,.,Cn1c(SCC(=O)NNC(=O)c2ccccc2)nnc1C(F)(F)F,.,-1.1%
-19%,-4,Cc1cc(-c2nc(C)c(C(=O)NN)s2)no1,26%,-0.2%
2%,.,O=C(COC(=O)c1cccc(OC(F)F)c1)Nc1cccc(S(=O)(=O)N2CCCC2)c1,.,1.2%

A second format for two compounds above.
Each structure is followed by: Rango dissoc inh, GLA inh pH 4.5, miR-21 reporter, Rango-impB inh
CCCCn1nnnc1SCC(=O)NNC(=O)C1CCCCC1
→ -10%, -2, 3%, -4.1%
COc1ccc(/C=N/NC(=O)C(=O)N2CCCCCC2)cc1[N+](=O)[O-]
→ -9%, ., -14%, -3.2%

Reprinted at random: seven compounds from above.
Rango dissoc inh,GLA inh pH 4.5,Structure,miR-21 reporter,Rango-impB inh
-3%,.,COc1ccccc1NC(=O)C(C)OC(=O)CCCOc1ccccc1 (configuration not stated),.,0.6%
-16%,-10,Cc1ccc2cccc(S(=O)(=O)NC3CCS(=O)(=O)C3)c2n1 (configuration not stated),-1%,-2.0%
0%,.,Cn1c(SCC(=O)NNC(=O)c2ccccc2)nnc1C(F)(F)F,.,-1.1%
2%,.,O=C(COC(=O)c1cccc(OC(F)F)c1)Nc1cccc(S(=O)(=O)N2CCCC2)c1,.,1.2%
-9%,.,COc1ccc(/C=N/NC(=O)C(=O)N2CCCCCC2)cc1[N+](=O)[O-],-14%,-3.2%
-6%,7,COc1ccc(CC(=O)O/N=C(\N)Cc2ccc(OC)cc2)cc1,-5%,-4.0%
0%,3,N#CCOC(=O)C1CSC2(c3ccc(Br)cc3)CCC(=O)N12 (configuration not stated),4%,1.2%

Remaining list, next part
Rango dissoc inh,GLA inh pH 4.5,Structure,miR-21 reporter,Rango-impB inh
?,-29,C=CCn1c(O)c(C=Nc2ccc(CN3CCCCC3)cc2)c(=O)[nH]c1=S,5%,-0.5%
13%,2,COc1ccc(C(c2nnnn2Cc2cccs2)N2CCC(C(N)=O)CC2)c(OC)c1 (configuration not stated),-8%,0.1%
-4%,-3,COc1ccccc1N1CCN(S(=O)(=O)c2ccc(F)cc2)CC1,-12%,-0.3%
?,10,Nc1ccc(C(=O)OCc2csc(-c3ccccc3)n2)cc1[N+](=O)[O-],-18%,-0.7%
-1%,-15,CC1CCCC(C)N1C(=O)CSc1nnc(NC(=O)c2cccs2)s1 (configuration not stated),-9%,0.0%
2%,-3,Cn1c(CNc2nc(-c3ccccc3)cs2)nnc1SCC(=O)c1ccccc1,-11%,-0.1%
0%,.,COc1ccc(S(=O)(=O)Nc2c(C)n(C)n(-c3ccccc3)c2=O)cc1C(=O)O,-5%,0.5%
-21%,.,CSc1sc(C(=O)N2CCc3ccccc32)cc1S(=O)(=O)C(C)C,0%,2.6%
6%,2,C/C=C/C(=O)Nc1nnc(C2CCCCC2)s1,-9%,-1.4%
0%,9,O=C(CC(=O)N/N=C\c1ccc([N+](=O)[O-])cc1)NCCc1ccccc1,-3%,-0.2%
-2%,-5,CC(C)CC(NC(=O)OC(C)(C)C)C(=O)O (configuration not stated),1%,-2.0%
-6%,4,Cc1ccc(C2CC(c3cccc(Br)c3)Nc3nnnn32)cc1 (configuration not stated),-2%,0.1%
0%,2,Cc1ccnc(NS(=O)(=O)c2ccc(NC(=O)c3ccc4c(c3)OCCO4)cc2)n1,-17%,-0.9%
-10%,-6,COc1ccc(OC(=O)c2cnc3n(c2=O)CCS3)cc1,4%,0.2%
-8%,.,COC(=O)c1ccc(OCC(=O)NC2CCCCCC2)cc1,-17%,0.9%
21%,3,Cc1ccc(SCC(=O)NC(=O)c2ccc(S(=O)(=O)N(C)C)cc2)cc1C,-8%,6.0%
1%,-5,CCOC(=O)c1sc(NNC(=O)c2ccc(F)cc2)nc1C,-2%,3.8%
-10%,-8,NC(=O)[C@@H]1CCOc2c(I)cc([N+](=O)[O-])cc2C(=O)N[C@@H](CO)C(=O)NCC(=O)N1,-6%,5.8%
3%,2,CCOc1cc(-c2nc(-c3ccc(C)nc3OC)no2)cc(OCC)c1OCC,-2%,-3.1%
0%,-2,CCCOc1ccc(C(=O)Nc2ccc(S(=O)(=O)Nc3onc(C)c3C)cc2)cc1,-12%,3.5%
4%,.,CCC1(C(=O)NC(=Nc2ccccc2)Nc2ccccc2)CCOC1=O (configuration not stated),.,0.5%
7%,.,O=C1CCCCC1Nc1ccc2ccccc2c1 (configuration not stated),.,5.5%
-3%,9,COc1ccc(C(=O)Nc2cccc(C)c2)cc1,-29%,2.6%
-14%,6,C/C(=N\Nc1cc(N2CCOCC2)ncn1)c1cccc([N+](=O)[O-])c1,-4%,-0.8%
-2%,-18,CCc1ccc2[nH]c(=O)c(CN(Cc3ccccc3)Cc3nnnn3Cc3ccco3)cc2c1,-5%,1.3%
4%,6,O=C(NCc1ccccc1)c1ccccc1CO,-1%,1.0%
?,.,COc1cc2c(oc(=O)c3cc(C)cc(OC)c32)c2c(C3OC(C)C(O)C(C)(O)C3O)ccc(O)c12 (configuration not stated),.,?
2%,.,COC(=O)C1=C(\O)CCCC/C=C\1C(=O)O,.,3.0%
6%,-4,CC(=O)Oc1ccc(C(=O)Nc2nnc(C)s2)cc1,-25%,-0.6%
-9%,-1,COc1cccc(/C=N/NC(=O)c2[nH]nc3c2CCc2ccccc2-3)c1,6%,-2.0%
-10%,-2,O=C(CC(c1ccccc1)c1ccccc1)NCc1cccnc1,0%,-1.0%
-1%,.,O=C(CN1C(=O)CCSc2ccc(S(=O)(=O)N3CCCC3)cc21)Nc1ccccc1Cl,-1%&-3%,-3.6%
4%,.,C/C(=N/NC(=O)NC12CC3CC(CC(C3)C1)C2)c1ccccc1,-3%,-0.1%
0%,7,Cc1ccc(NCCC(=O)c2cccs2)cc1,-38%,-2.4%
5%,3,Cc1oc(C(=O)O)cc1COc1ccc2c3c(c(=O)oc2c1C)CCC3,-9%,0.1%
0%,-12[21.1 µM],CCCCN(CC)Cc1ccc(CNC(=S)Nc2ccc(C)cc2Cl)o1,0%,?
1%,.,Cc1cc(NC(=O)Nc2ccc(OCc3ccccc3)cc2)n(C)n1,0%,-0.3%
27%,5,COCCN(CCOC)S(=O)(=O)c1ccc(C(=O)Nc2nnc(CSC)o2)cc1,3%,1.4%
-8%,-21,CCc1ccc2[nH]c(=O)c(CN(CCN(CC)CC)C(=S)NCc3ccco3)cc2c1,-2%,-6.8%
-25%,-6,Oc1oc(-c2ccco2)nc1C=Nc1ccccc1,-9%,3.4%

Screening data: PubChem, National Center for Advancing Translational Sciences (NCATS)
